HNF4A DNA FP = change in binding of human HNF4 alpha to DNA | HNF4a-FITC DNA binding, fluorescence polarization, 1 h | actives 0.3% (n = 360,000) | P41235 | activity change, % at 10 µM; in the data active = activity change above about 30%, passing the limit was not always enough;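 note: controls were the assay level and a saturating level of protein; the project sought stronger binding though the title names inhibitors; some compounds called inactive have numbers as strong as hits; positive values seem to mean higher polarization but the record does not say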
Target sequence (P41235 whole entry, looked up): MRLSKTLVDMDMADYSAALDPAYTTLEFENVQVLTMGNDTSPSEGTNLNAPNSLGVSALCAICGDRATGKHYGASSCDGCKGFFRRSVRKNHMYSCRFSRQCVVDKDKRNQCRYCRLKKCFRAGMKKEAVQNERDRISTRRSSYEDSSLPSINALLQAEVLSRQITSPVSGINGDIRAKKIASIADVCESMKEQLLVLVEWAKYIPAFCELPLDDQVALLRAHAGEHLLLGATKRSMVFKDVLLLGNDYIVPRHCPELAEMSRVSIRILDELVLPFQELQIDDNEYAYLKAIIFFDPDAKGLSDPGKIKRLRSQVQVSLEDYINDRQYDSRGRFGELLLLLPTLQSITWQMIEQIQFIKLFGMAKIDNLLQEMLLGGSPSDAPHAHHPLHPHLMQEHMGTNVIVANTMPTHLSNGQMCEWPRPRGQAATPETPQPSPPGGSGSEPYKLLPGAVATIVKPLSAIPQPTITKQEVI
Calb FLC = affects C. albicans growth with fluconazole | C. albicans CaCi-2 (fluconazole-resistant clinical isolate) + fluconazole, Alamar Blue growth, 48 h | growth inhibition, % (no concentration beside the values) | actives 0.57% (n = 300,000) | AID 1979;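 active = most replicates above 75%; inconclusive = exactly half above 75%; inactive = most below 75%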;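 note: all wells also contain fluconazole at 8 µg/ml as a sub-toxic cotreatment; 0% = median of DMSO wells and 100% = median of geldanamycin control wells; wells of about 8 µL received 7.5 nL stock; the first replicate is given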
RanGTP-Imp inh = inhibitors of RanGTP-importin-beta interaction, primary screen, biochemical, FRET, CFP-Ran, YFP-importin-beta, homogeneous | cell-free CFP-Ran/YFP-importin-beta FRET ratio | inhibition, % (concentration not given with the values) | actives 1.1% (n = 300,000);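 active = most replicates above 15%; inconclusive = exactly half above 15%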;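 note: 0% = DMSO wells and 100% = Ran loaded with GDP instead of GTP; wells of about 40 µL received 100 nL stock; the first replicate is given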
ALR H2O2 inh = inhibitors of human sulfhydryl oxidase ALR; P55789; purified ALR, DTT oxidation, H2O2 HRP-luminol luminescence; inhibition, % (concentration not given with the values); actives 3.8% (n = 290,000);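 active = mean and each replicate at 75% or more; inconclusive = only one of the two met; inactive = neither met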;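 note: stock transfer was 7.5 nL into about 7.5 µL; 0% = neutral wells and 100% = wells with inactivated enzyme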
Target sequence (P55789 whole entry, looked up): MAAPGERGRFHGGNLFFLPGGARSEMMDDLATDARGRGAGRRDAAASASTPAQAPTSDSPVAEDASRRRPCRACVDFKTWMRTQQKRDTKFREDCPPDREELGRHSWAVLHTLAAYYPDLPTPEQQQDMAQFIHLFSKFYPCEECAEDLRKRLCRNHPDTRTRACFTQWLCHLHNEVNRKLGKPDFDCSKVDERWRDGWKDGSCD
B2AR ag = agonists of human beta-2 adrenergic receptor inducing internalization. Am2.2-beta2AR cells, FAP receptor internalization, flow cytometry; reference of the scale not given here. response, % (test concentration not listed). actives 0.43% (n = 340,000). AID 504454;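 active = response above a set limit, near 3 SD of response in nonfluorescent compounds, cut at about 42% in these data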;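 note: stock transfer was 100 nL into about 11 µL; a reference agonist was the positive control; negative values mostly stem from fluorescent compounds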
Target sequence (P07550 whole entry, looked up): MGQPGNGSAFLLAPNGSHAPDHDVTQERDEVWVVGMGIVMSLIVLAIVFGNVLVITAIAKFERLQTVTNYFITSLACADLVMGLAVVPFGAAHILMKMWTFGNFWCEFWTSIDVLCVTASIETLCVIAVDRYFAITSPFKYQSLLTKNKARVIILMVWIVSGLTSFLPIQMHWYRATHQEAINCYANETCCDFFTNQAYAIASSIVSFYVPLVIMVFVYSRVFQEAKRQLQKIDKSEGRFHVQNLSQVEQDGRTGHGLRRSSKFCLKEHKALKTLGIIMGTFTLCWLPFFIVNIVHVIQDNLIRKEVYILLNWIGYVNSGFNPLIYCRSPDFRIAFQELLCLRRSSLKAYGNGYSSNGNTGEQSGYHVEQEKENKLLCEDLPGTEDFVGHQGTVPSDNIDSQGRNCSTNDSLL
LANA-H2A inh = blocks KSHV LANA binding to histone H2A/H2B; inhibition, % (test concentration not listed); actives 0.6% (n = 320,000); AID 2629; cell-free LANA-H2A/H2B peptide, fluorescence polarization; Q9QR71; in the data active = inhibition mostly above about 10%, no sharp cut-off; inactive = mostly below about 6.7%;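 note: stock transfer was 7.5 nL into about 10 µL; 0% = median of vehicle wells and 100% = median of positive control wells; one replicate is shown; the record names a cut of 25% in any replicate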
Vif TR-FRET = inhibitors of Vif binding to APOBEC3G peptide, primary screen, biochemical, TR-FRET, GST-Vif 1-94, biotin-A3G peptide, dose response retest (AID 1117319) | TR-FRET GST-Vif / biotin-A3G peptide binding; higher % means a stronger effect; test concentration not given here; strong numbers were not always called active | inhibition, %, or IC50 in µM where a hit was titrated | actives 0.57% (n = 260,000);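 active = above the screen mean plus three standard deviations and confirmed in dose response; inconclusive = results disagree or hit not tested in dose response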;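 note: Vif residues 1-94 fused to GST binding biotinylated APOBEC3G peptide 110-148; 0% = full assay without inhibitor and 100% = GST in place of GST-Vif; retest series ran down from 100 µM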
An asterisk follows results filed as active; ? = inconclusive; / = no result given; & = joins results of further samples.

SMILES | HNF4A DNA FP | Calb FLC | RanGTP-Imp inh | ALR H2O2 inh | B2AR ag | LANA-H2A inh | Vif TR-FRET
COC(=O)c1ccccc1NC(=O)CN1C(=O)CSC1=O | 0.3 | 2 | -2.6 | 3 | 1 | -1.8 | -9%
CCOC(=O)C(=CNNc1cccc(Cl)c1)C(=O)OCC | 1.4 | -5 | -3.2 | -54 | 2 | 1.5 | 14%
CCOC(=O)CN(C(=O)COc1nc(-c2ccccc2)cc(C)c1C#N)c1ccccc1C | 0.2 | 0 | 0.5 | -8 | 21 | -7.4 | -19%
O=C(CSc1nc(C2CC2)n(-c2ccccc2)n1)NCc1ccco1 | 1.9 | / | / | 1 | 0 | -1.5 | -5%
CCCCN(C)CCn1c(=S)[nH]c2ccc(N3CCOCC3)cc2c1=O | 0.1 | -7 | 0.2 | 7 | -8 | 2.4 | 26%
O=C(CN1CCN(c2ccc(F)cc2)CC1)Nc1cc(C(F)(F)F)ccc1Cl | 1.5 | -1 | 2.5 | / | 10 | -5.5 | 6%&3%
COc1ccc(S(=O)(=O)N(C)C[C@H]2Oc3c(NC(=O)Nc4c(C)noc4C)cccc3C(=O)N([C@H](C)CO)C[C@@H]2C)cc1 | -3.4 | / | / | 6 | -9 | 1.1 | /
Cc1ccccc1N(C(=O)CCCC(=O)Nc1ccccn1)C(C(=O)NC1CCCC1)c1ccc(O)cc1 (configuration not stated) | 6.3 | 1 | -0.5 | / | -5 | -0.4 | /
Cc1ccc(Cn2ccc(NC(=O)C3C4CCC(C4)C3C(=O)O)n2)cc1 (configuration not stated) | -1.1 | -2 | -0.8 | 2 | 8 | 1.9 | -3%
COC(=O)C1=C(N)Oc2cc(C)n(CCc3ccccc3)c(=O)c2C1c1cccnc1 (configuration not stated) | 2.7 | 0 | 5.7 | -1 | -3 | -1.8 | 5%
Cc1cc(Cl)ccc1OCC(=O)N[C@@H](Cc1ccccc1)c1nc2ccccc2[nH]1 | -0.9 | -5 | 1.3 | -17 | 9 | -6.6 | 1%
CCCN(CCC)CCCNC(=O)c1ccc2c(Cl)c3c(nc2c1)CCC3 | -2.4 | -2 | -1.9 | 2 | -4 | 0.7 | -1%

Retrieved one by one from the entries so far:
SMILES | HNF4A DNA FP | Calb FLC | RanGTP-Imp inh | ALR H2O2 inh | B2AR ag | LANA-H2A inh | Vif TR-FRET
O=C(CSc1nc(C2CC2)n(-c2ccccc2)n1)NCc1ccco1 | 1.9 | / | / | 1 | 0 | -1.5 | -5%
CCOC(=O)CN(C(=O)COc1nc(-c2ccccc2)cc(C)c1C#N)c1ccccc1C | 0.2 | 0 | 0.5 | -8 | 21 | -7.4 | -19%

(further entries)
SMILES | HNF4A DNA FP | Calb FLC | RanGTP-Imp inh | ALR H2O2 inh | B2AR ag | LANA-H2A inh | Vif TR-FRET
CC(NC(=O)/C(=C\c1ccco1)NC(=O)c1ccco1)C(=O)O (configuration not stated) | 0.7 | -1 | -0.5 | -16 | 2 | -2.7 | /
CCOc1ccc(NC(=O)CSc2nc3ccccc3c(=O)n2CCNC(C)=O)cc1 | 1.3 | 3 | -2.1 | -14 | -4 | -3.0 | -5%
O=C1Nc2ccccc2/C1=N/N=C/c1ccc(-c2ccc([N+](=O)[O-])cc2)o1 | -18 | -13 | 5.3 | / | 43* | / | 0%
Cc1cc(OCC(=O)Nc2ccc(CN3CCOCC3)cc2)c2c(C)c(C)c(=O)oc2c1 | -0.7 | -3 | -0.6 | -11 | 1 | 1.7 | /
O=C(NCCc1nc2ccccc2[nH]1)/C(=C/c1ccc2c(c1)OCO2)NC(=O)c1ccccc1 | 1.2 | -5 | 1.0 | -3 | -3 | -2.7 | /
Cc1cccc(C)c1-n1nnnc1C(C)(C)N1CCN(N=O)CC1 | -1.7 | -1 | 0.5 | 1 | 5 | -2.5 | /
O=c1c2oc3ccccc3c2ncn1Cc1ccc(Cl)cc1 | 0.3 | 7 | 3.5 | 1 | -4 | 3.0 | -7%
CC(C)Oc1ccc(N2C(=O)c3ccccc3C2=O)cc1 | -1.5 | -7 | 1.8 | 1 | 2 | -1.8 | 6%
CCOC(=O)C(NC(C)=O)C(O)c1ccc([N+](=O)[O-])cc1 (configuration not stated) | -8.8 | ? | -1.1 | -2 | -5 | -17 | 4%
COc1ccc(CNC(=O)N2CCc3ccccc3C2)cc1 | 1.2 | -16 | -1.3 | / | -2 | 0.7 | -2%
Cc1cc(C)nc(-n2nc(C)cc2NC(=O)c2cccc(S(=O)(=O)N3CCOCC3)c2)n1 | -0.3 | / | / | / | 2 | / | 2%&3%
COc1ccc(CNc2nc3ccccc3n2C(C)C)c(O)c1 | 4.4 | -3 | 2.0 | 99* | -1 | 1.9 | /

Sorted by the number under Vif TR-FRET (rising): 4 of the compounds above.
SMILES	Vif TR-FRET
O=c1c2oc3ccccc3c2ncn1Cc1ccc(Cl)cc1	-7%
CCOc1ccc(NC(=O)CSc2nc3ccccc3c(=O)n2CCNC(C)=O)cc1	-5%
COc1ccc(CNC(=O)N2CCc3ccccc3C2)cc1	-2%
CCOC(=O)C(NC(C)=O)C(O)c1ccc([N+](=O)[O-])cc1 (configuration not stated)	4%

Carrying on:
SMILES | HNF4A DNA FP | Calb FLC | RanGTP-Imp inh | ALR H2O2 inh | B2AR ag | LANA-H2A inh | Vif TR-FRET
O=C(Nc1ccccc1C(F)(F)F)c1ncn[nH]1 | 3.7 | 3 | 6.6 | -10 | 8 | -0.3 | -2%
O=C(CSc1nccn(-c2ccc(Br)cc2)c1=O)NC1CCCC1 | -1.7 | 0 | 5.4 | / | 2 | / | -6%
O=C(NCCc1ccccc1)C1CC(=O)N(C2CCCCC2)C1 (configuration not stated) | 2.2 | 16 | -0.5 | 6 | -2 | 0.7 | -8%
CN1CCN(C(=O)c2ccc(-c3ccc(Br)cc3)o2)CC1 | -1.3 | / | / | 7 | 9 | -0.2 | /
Cc1ccc2oc(=O)c(/C=C(\O)C(C)(C)C)nc2c1 | 0.1 | -1 | -0.2 | 36 | 1 | 3.2 | 0%
O=C(N/N=C/c1ccccn1)c1cc(-c2ccc3ccccc3c2)n[nH]1 | 0.1 | ? | -0.3 | 0 | 9 | -3.1 | 20%
CCOc1ccc(Br)cc1S(=O)(=O)Nc1cccc(S(=O)(=O)Nc2ccccc2C(=O)O)c1 | -3.1 | / | / | / | 1 | 6.1 | /
CCN1CCN(c2ccc(S(=O)(=O)N3CCOCC3)cc2NC(=O)/C=C/c2cccc(OC)c2OC)CC1 | 0.5 | -5 | -0.7 | / | 4 | -0.3 | 4%
CCOC(=O)c1c(C)[nH]c(C(=O)/C(C#N)=C/c2ccc(OC)c(OC)c2)c1C | 2.9 | 7 | -5.0 | 12 | -7 | 1.1 | /
Cc1ccc(NC(=O)CCCc2ccccc2)nc1 | -1.7 | 2 | -0.3 | / | -2 | 2.4 | 19%
O=C1C2C(c3ccccc3)CC=CC2[C@H](c2ccoc2)N1Cc1ccccc1 (some centres not stated) | 0.1 | -2 | -2.6 | / | 23 | -11 | /
Cc1cc(C)n(CC(=O)NC2C(=O)N3C(C(=O)O)=C(CSc4nnc(C)s4)CSC23)n1 (configuration not stated) | -3.1 | -17 | / | -20 | 5 | -6.3 | 0%
CC1CCCC(NC(=O)c2ccc3c(c2)NC(=O)CS3)C1C (configuration not stated) | 3.3 | 4 | 2.4 | 1 | -2 | -5.6 | /
Cc1ccc(N2C(=O)C(Cl)=C(N3CCOCC3)C2=O)cc1Cl | -1.7 | -5 | 0.5 | 10 | 2 | -1.7 | /
S=c1[nH]nc(CNc2ccc(Cl)cc2)n1Cc1ccccc1 | 0.2 | 43 | -2.0 | 99* | 4 | 0.9 | 32%
CC(C(=O)Oc1ccc2c(c1)OCO2)N1C(=O)c2ccccc2C1=O (configuration not stated) | / | 4 | 1.8 | -67 | / | 21* | ?
O=C(OCC(=O)N1c2ccccc2Sc2ccccc21)c1cccnc1 | 4.6 | -5 | 3.7 | 28 | 3 | 1.8 | 2%
COc1ccccc1OCCC(=O)OCC(=O)NCc1ccc(F)cc1 | 0.1 | / | / | / | 5 | -0.7 | /
CC(=O)c1cn(CC(=O)Nc2ccc(C)cc2C)c2ccccc12 | 1.1 | 7 | -1.8 | -21 | -4 | -1.5 | 23%
OCCn1nc2c3ccccc3nc-2n(-c2ccccc2)c1=S | 0.9 | -2 | -2.2 | -2 | -9 | -1.0 | 3%
COc1ccc(-c2noc(C(C)n3nc(C)c([N+](=O)[O-])c3C)n2)cc1OC (configuration not stated) | 1.4 | -8 | 0.0 | -8 | -1 | -3.4 | 0%
CC(=O)c1cccc(CN2CCCC(CCC(=O)NCc3ccccc3F)C2)c1 (configuration not stated) | 2.3 | 2 | 0.3 | -9 | -10 | -1.8 | 4%
COC(=O)C1=CN(Cc2ccccc2)C=C(C(=O)OC)C1c1ccc(OC)c(OC)c1 | 1.3 | -6 | 2.6 | -11 | -8 | -7.7 | /
COc1ccccc1-c1cc(C(F)(F)F)nc(S(=O)(=O)CCCC(=O)O)n1 | 0.2 | -4 | 3.7 | 38 | -3 | -1.9 | 0%
CN(C)C1N(C(=O)c2ccccc2)N=C2c3ccccc3S(=O)(=O)N21 (configuration not stated) | 2.2 | -5 | 1.1 | 0 | -3 | 2.9 | /
COc1cc(/C(C)=N/NC(=O)CN2CCN(S(=O)(=O)c3ccc(C)cc3)CC2)ccc1O | -2.6 | 6 | 0.8 | 98* | 9 | -0.4 | -3%
C#CCn1c(=NC(=O)c2cccs2)sc2cccc(OC)c21 | 12 | 9 | 3.0 | -2 | -9 | -1.9 | -35%
COC(=O)N/N=C/c1cn(CCCOc2ccccc2)c2ccccc12 | 0.3 | -1 | -1.8 | 0 | -2 | -6.2 | /
Cn1c(NC(=O)c2cc(-c3ccc4c(c3)OCO4)nc3ccccc23)cc(=O)n(C)c1=O | -1.2 | 5 | -1.8 | 8 | -8 | 2.0 | -5%
COc1ccc(N2C(=O)[C@H]3[C@@H](C2=O)C2c4ccccc4C=NN2[C@H]3C(=O)C(C)(C)C)cc1 (some centres not stated) | -1.1 | 5 | 1.1 | -6 | -6 | 0.0 | /
COc1ccc(-c2nc(-c3cccc(C)c3)nc(N3CCN(C)CC3)c2C#N)cc1 | 1.1 | -4 | 4.0 | -4 | 4 | 4.3 | 2%
CCOC(=O)C(=CNc1ccc2c(c1)c1ccccc1n2CC)C(=O)OCC | 36* | -3 | -2.1 | -11 | 1 | 2.6 | -142%
NCCSSCCN | -0.8 | -8 | 1.5 | / | -3 | 0.0 | 15%
COc1cccc(OC)c1OCCCCn1cnc2ccccc2c1=O | 1.2 | 1 | -1.0 | -4 | -4 | 0.7 | -7%
CCn1ncc(S(=O)(=O)Nc2cc(Cl)ccc2C)c1C | -1.2 | -2 | -6.0 | -3 | -3 | -0.8 | 0%
O=C(Cc1c(F)cccc1Cl)NNC(=O)c1ccc(Br)s1 | 1.3 | / | / | 0 | 0 | -0.8 | /
O=C(NCc1nnc(SCc2ccc(C(F)(F)F)cc2)n1-c1ccccc1)C12CC3CC(CC(C3)C1)C2 | -3.8 | -11 | -1.7 | -17 | -4 | -4.4 | /
COc1ccc(CNC(=O)CNC(=O)c2ccc(C(C)(C)C)cc2)cc1OC | 2.4 | 1 | 6.4 | -32 | 11 | -3.6 | 6%
O=C(O)CCc1nc2cccnc2n1Cc1ccccc1 | 6.1 | -1 | ? | 0 | -20 | 4.9 | -6%
O=C(Cn1c(=O)n(-c2ccc(F)cc2)c(=O)c2sccc21)NC1CCCCC1 | 0.8 | 10 | -1.5 | / | -11 | -2.5 | -39%
CCOC(=O)c1cc(-c2ccc(/C=N\n3cnnc3)o2)ccc1Cl | 1.3 | -1 | 3.2 | 1 | 11 | -0.7 | -6%

Screening data from PubChem BioAssay.

Hits appear at their usual frequency; 6.3% or so of the library scored in one or more.
